Source: PubChem (National Center for Advancing Translational Sciences (NCATS))
Menin MLL FP FL – displaces fluorescein MLL peptide from human menin; Fluorescence polarization, fluorescein-MLL peptide displacement from menin; 290,000 tested, under 10 active; FP activity change, % at 61.4 µM; inconclusive = falling polarisation curve, or a change in total fluorescence; inactive = total fluorescence flat and polarisation flat or rising; no compound was filed as active; the % refers to the polarisation; negative = inhibition;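 note: % of control where 0% means no effect; inhibitors lower the polarisation; unlabelled MLL peptide was the positive control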
gsp agonist – activates gsp, the McCune-Albright syndrome mutation | AID 624287 | actives 0.13% (n = 340,000) | Potency, µM (doses to about 76.9 µM), inactives show top-dose activation (cAMP increase), most hits filed as activators | gsp mutant cells, cAMP HTRF, 30 min; control for the full effect not named in the record; active = well fitted activation curve with a large enough effect; inconclusive = small, poorly fitted or top-dose-only effect, or another doubt; inactive = no such curve, though single readings can be large or run the other way; cell line not stated here;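 note: phosphodiesterase inhibitor Ro 20-1724 added with compounds to block cAMP breakdown; potency is the fitted concentration of half-maximal effect; nearly all actives have a fitted effect of over 60% in size; about a fifth of the inactives were tested at one dose only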
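Cells stably selected in G418 were plated at 2000/well, grown 16-24 hr, then given compounds in DMSO with the PDE inhibitor […] (300 uM solution added) for 30 min at 37C; cAMP was read by HTRF.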
Sfp PPTase inh – Sfp phosphopantetheinyl transferase inhibition; actives 3.5% (n = 310,000); Biochemical Sfp PPTase activity, qHTS; Q9F4F7; Potency, µM, for the others: max response, negative = inhibition, actives largely listed as inhibitors; active = well fitted inhibition curve with a large enough effect; inconclusive = small, poorly fitted or top-dose-only effect, or another doubt; inactive = no such curve, though single readings can be large or run the other way;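 note: the enzyme is Sfp with the accession as filed and its product quenches rhodamine fluorescence; potency is the fitted concentration of half-maximal effect; 0% = enzyme reaction without inhibitor and -100% = no enzyme wells; top concentration of the series not given in the record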
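After 15 min at room temperature with compound, 15 nM Sfp received 5 uM rhodamine-CoA plus 12.5 uM BHQ-2-ybbR (50 mM Hepes pH 7.6, 10 mM MgCl2). Rate came from the fluorescence difference over 30 min, ex 525/em 598 nm.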
gsp antag – antagonizes gsp, the McCune-Albright syndrome mutation | gsp-mutant cells, cAMP HTRF, 30 min; control for the full effect not named in the record | Potency, µM (series often up to 76.9 µM), inactives show at the highest dose activity change, negative = inhibition, actives largely listed as inhibitors | actives 0.4% (n = 340,000); active = falling curve of any shape with a large fitted effect; inconclusive = falling curve, mostly with a smaller effect; inactive = flat or rising curve; cell line not stated here;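 note: intracellular cAMP measured with PDE inhibitor Ro 20-1724 present during compound exposure; potency is the fitted concentration of half-maximal effect; % is set by controls: 0 for no effect and ±100 for the full control effect; nearly all actives have a fitted effect of over 65% in size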
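Cells, 2000/well, grown 16–24 h in DMEM 10% FBS with 0.5 mg/ml G418, then compounds plus […] (300 uM addition stock), 30 min at 37C. cAMP read by HTRF (cAMP-d2 and anti-cAMP antibody-K in lysis buffer) after 30 min RT.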
PINK1 expr mod – changes PINK1 expression; actives 0.2% (n = 410,000); Potency, µM (top dose mostly 76.6 µM), for the others: at the highest dose activation (PINK1 increase), most hits filed as activators; PINK1 immunofluorescence, high-content cytometry, 24 h; AID 624263; active = well fitted activation curve with a large enough effect; inconclusive = small, poorly fitted or top-dose-only effect; inactive = flat fitted curve, though single readings scatter; cell line not stated here;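 note: potency is the fitted concentration of half-maximal effect; % of control where 0% means no effect; nearly all actives have a fitted effect of over 65% in size; a mitochondrial uncoupler was the plate control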
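Stable cell line, 250 cells/well, 12 h attachment; compounds pinned at 5 concentrations, 24 h; CCCP control. Fixed with nuclear dye, primary antibodies 12 h at 10 degrees C, secondary plus cell stain; laser-scanning cytometer read.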
ClpP mod – qHTS Assay for Activators of ClpP; AID 651965, 2013; Potency, µM (highest dose often 57.5 µM), for the others: at the highest dose activity change, negative = active; purified B. subtilis ClpP, FRET peptide cleavage, 20 min; actives 1.9% (n = 340,000); ATP-dependent Clp protease proteolytic subunit (Bacillus subtilis (strain 168)), P80244; active = well fitted falling curve with a large enough effect; inconclusive = small, poorly fitted or top-dose-only effect; inactive = no such curve, though single readings can be large or run the other way; note: potency is the fitted concentration of half-maximal effect; the source files actives as falling curves though it sought activators and does not explain the sign; nearly all actives have a fitted effect of over 65% in size; many hits overshoot -100%
Target sequence (P80244 whole entry, looked up): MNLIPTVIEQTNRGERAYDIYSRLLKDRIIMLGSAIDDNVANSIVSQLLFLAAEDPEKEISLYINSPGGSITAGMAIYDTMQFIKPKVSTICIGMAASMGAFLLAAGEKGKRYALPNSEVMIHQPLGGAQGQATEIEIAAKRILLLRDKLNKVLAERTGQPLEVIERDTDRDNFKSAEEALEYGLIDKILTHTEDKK
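Buffer: 100 mM Tris/HCl pH8, 100 mM KCl, 0.05% low protease BSA, 2.5% glycerol, 0.01% Tween-20. ClpP 10 microg/mL final; 20 min RT; delta FRET normalized to ADEP and DMSO controls.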
D2 agonist – agonists of human D2 dopamine receptor (beta-arrestin). P14416. DiscoveRx PathHunter D2 beta-arrestin, luminescence, 90 min; 100% = 57 uM dopamine signal. activation, % (concentration not given with the values). actives 0.084% (n = 360,000). AID 624465; in the data active = activation above about 40%; inconclusive = about 15% to 40%; inactive = below about 15%; note: compound concentration not given in the record; the text of the record calls up to 30% inactive
Target sequence (P14416 whole entry, looked up): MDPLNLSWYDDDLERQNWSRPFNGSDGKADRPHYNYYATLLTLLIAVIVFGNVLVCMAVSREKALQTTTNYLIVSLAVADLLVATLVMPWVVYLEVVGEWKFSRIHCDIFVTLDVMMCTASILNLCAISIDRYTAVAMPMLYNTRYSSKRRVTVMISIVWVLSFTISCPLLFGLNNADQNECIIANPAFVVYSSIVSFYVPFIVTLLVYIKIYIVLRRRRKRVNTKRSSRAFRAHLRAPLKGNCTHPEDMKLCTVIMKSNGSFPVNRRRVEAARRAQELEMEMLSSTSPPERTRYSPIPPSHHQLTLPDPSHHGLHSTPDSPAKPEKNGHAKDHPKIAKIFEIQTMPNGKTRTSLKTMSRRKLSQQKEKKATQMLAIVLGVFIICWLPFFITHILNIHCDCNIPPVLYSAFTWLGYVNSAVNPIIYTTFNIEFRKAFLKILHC
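DiscoveRx PathHunter D2 beta-arrestin cells (2,100/well) attached overnight, then compound-stimulated 90 min at 37 C in HBSS/10 mM HEPES/0.1% Tween-20 buffer; beta-galactosidase complementation read by luminescence after 1 h at ambient temperature. Dopamine 57 uM final (EC100) as control.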
* = called active by the depositor; ? = inconclusive; nt = not tested or not shown; & = joins results of further samples; [ ] = another dose, or the depositor's remark.

Order of values – gsp agonist | gsp antag | ClpP mod | PINK1 expr mod | Sfp PPTase inh | Menin MLL FP FL | D2 agonist
1: CSc1nc(N2CCN(C)CC2)c2c(c1C#N)CC(C)(C)OC2
    5%[15.4 µM] | -2% | nt | -1.1% | 7% | 3.5 | -3.1
2: C=CCNC(=O)/C(C#N)=C/c1ccccc1OCc1ccc(C(=O)OC)cc1
    0% | ? | 234% | 0.5% | 2% | 2.3 | 0.3
3: COc1ccc(NS(=O)(=O)c2cccc(C(=O)N(C)CC(=O)Nc3ccc(C)cc3)c2)cc1
    1% | -9% | -1.2% | 1.4% | nt | nt | -1.2
4: CC(=O)Nc1ccc(NC(=O)Cc2ccc(S(=O)(=O)N3CCCCC3)s2)cc1
    4% | 6% | 3.7% | 4.1% | 2% | 2.6 | 1.2
5: COc1cc2nc(CN(C)Cc3ccc(SC)cc3)[nH]c(=O)c2cc1OC
    -21% | -4% | -4.2% | 3.2% | ? | 0.0 | 2.6
6: CCOC(=O)Cn1nc(C)c(NC(=O)c2cccc([N+](=O)[O-])c2)c1C
    -8%[15.4 µM] | 14% | nt | 1.0% | 18% | 1.4 | -0.7
7: C=CCn1c(SCC(=O)O)nc2sc(CC)cc2c1=O
    4% | -8% | nt | -2.2% | -4% | 0.4 | 2.6
8: O=c1c2ccccc2oc2ccc(C#CC3(O)CCCCC3)cc12
    nt | -9% | 3.6% | -0.8% | nt | nt | 0.8
9: O=C(c1cc(-c2ccccn2)nc2ccc(Cl)cc12)N1CCN(CCc2ccccc2)CC1
    8%[15.4 µM] | -11% | 2.4% | 1.8% | -12% | -6.6 | 0.0
10: O=c1[nH]c2cccnc2n(CCNc2ncc(C(F)(F)F)cc2Cl)c1=O
    10%[15.4 µM] | 8% | nt | 0.1% | 4% | 0.3 | -1.3
11: CCOc1ccc(NC(=O)CSc2nnc(C)n2Cc2ccccc2)cc1
    -4% | -3% | 2.4% | 0.8% | 3% | 7.1 | 0.3
12: COc1cc(/C=C2\SC(=O)N(CCN)C2=O)ccc1OS(=O)(=O)c1cc(C)ccc1C
    13%[15.4 µM] | 10% | nt | -2.5% | -51% | -4.5 | -2.2
13: Cc1cccc(CNc2nc(-c3ccccc3CN(C)C)nc3ccccc23)c1
    nt | nt | nt | ? | -20% | 0.4 | nt
14: CC(C)N(C)S(=O)(=O)c1ccc(NC(=O)C2=COCCO2)cc1
    ? | 7% | -2.5% | -1.3% | nt | nt | 1.3
15: O=C(c1ccc2c(c1)OCO2)N(c1ccc(Br)cc1)C1C=CS(=O)(=O)C1 (centres undefined)
    -13% | 2% | -0.3% | 0.5% | 14% | -1.3 | -3.1
16: CCOC(=O)C(C)Sc1nnc(-c2c[nH]c3ccccc23)n1C (centres undefined)
    5% | -7% | 1.6% | 0.0% | -1% | -1.8 | -2.5
17: NS(=O)(=O)c1ccc(-n2ncc3c(=O)[nH]c(SCC(=O)Nc4nccs4)nc32)cc1
    10% | 4% | -29% | 0.0% | 3% | 3.0 | -8.2
18: CC(=O)c1ccccc1NC(=O)CSc1n[nH]c(=O)n1C1CC1
    12% | 6% | nt | 0.0% | nt | nt | -4.0
19: NNC(=O)c1sc2cc(C(F)(F)F)cnc2c1-c1cccs1
    ? | -2% | nt | -0.2% | 7% | -2.0 | 2.9
20: CN(C)CCn1c(=O)n(Cc2ccco2)c(=O)c2c3c(sc21)CCCCC3
    -5% | -2% | -0.2% | -6.5%[38.3 µM] | 2% | -1.3 | 1.0
21: CCOCCCNc1nc2c(c(=O)n(C)c(=O)n2C)n1CCCc1ccccc1
    26% | 6% | 0.0% | -2.4% | 7% | 1.2 | -0.9
22: O=[N+]([O-])c1cccc(/C=N/Nc2nc(N3CCCCC3)nc(N3CCCCC3)n2)c1
    25% | -8% | nt | 3.4% | 2% | 0.5 | -0.6
23: O=C(c1ccccc1)N(NC(=O)C(O)(c1ccccc1)c1ccccc1)c1cccc(F)c1
    -4% | -4% | -1.7% | 7.1% | 18% | 5.3 | -3.8
24: CCCn1c(=O)[nH]c(=O)c2c(C(F)(F)F)cc(-c3ccc(C)cc3)nc21
    -16% | -9% | -22% | 3.9% | 1% | -1.6 | -4.2
25: COc1ccc(CCn2c(NN=C3CCCC3)nc3c2c(=O)[nH]c(=O)n3C)cc1
    2% | 4% | 3.5% | 1.6% | -6% | 5.5 | 46*
26: CCOc1cc(S(=O)(=O)NCCCN2CCOCC2)c(C)cc1C
    -1%[15.4 µM] | 9% | -2.3% | -0.5% | 4% | nt | -0.8
27: O=C(NCCC(F)(F)F)C1Cc2c(-c3ccccc3Oc3ccccc3)ccnc2O1 (centres undefined)
    nt | nt | -2.5% | 1.1% | nt | nt | -4.0
28: O=C(c1ccc(O)cc1)c1ccc(C(=O)O)c(C(=O)O)c1
    -65%[inhibitor] | 11% | -2.5% | 4.3%[38.3 µM] | 22% | -0.4 | -1.0
29: CC(C)(C)n1cnc2cc(NC(=O)c3cccs3)ccc21
    -4%[15.4 µM] | 3% | 0.7% | 7.5% | -7% | 5.5 | -4.5
30: O=C(CN1CCC(O)CC1)N1c2ccccc2C=Cc2ccccc21
    -2% | 2% | -1.3% | -0.1% | -9% | -2.9 | 3.5
31: CCOC(=O)c1c(-c2ccc(C)s2)csc1NC(=O)c1cccs1
    27% | 1% | -8.7% | 9.7% | 4% | -1.9 | -0.7
32: CC1(C)NC(=O)N(CCCOc2ccccc2Br)C1=O
    19% | 1% | -6.9% | 4.3% | 7% | -1.5 | -2.6
33: CCOC(=O)Cn1c(=O)n(Cc2ccc(OC)cc2)c(=O)c2cccnc21
    8% | 0% | nt | 2.3% | 13% | -1.2 | 0.6
34: Cc1ccc(N(CC(=O)NCc2ccco2)C(=O)CNS(=O)(=O)c2ccc(F)cc2)c(C)c1
    -7%[15.4 µM] | -3% | -4.3% | 0.6% | -7% | -0.5 | -2.6
35: O=c1c2c(nc3c(-c4cccc5ccccc45)c[nH]n13)CCC2
    ? | ? | 11µM* | -1.9% | -7% | 7.9 | -3.8
36: CC(=O)Nc1ccc(N2C(C(C)=O)=NN(c3ccccc3)C2c2cccs2)cc1 (centres undefined)
    23% | -15% | 2.7% | 5.8%[38.3 µM] | 0% | 9.4 | -0.8
37: CC1=C[C@@H](C)[C@@H](c2ccc(C(F)(F)F)cc2)OC1=O
    2% | 14% | 1.2% | 2.3% | 2%&4% | 0.3&-1.4 | -2.0
38: O=C(Nc1nnc(-c2ccccc2)s1)c1ccccc1O
    -14%[15.4 µM] | -26% | nt | ? | 20% | 0.0 | 0.5
39: CC(=O)Nc1ccc(NC(=O)c2ccc(COc3ccccc3Br)o2)cc1
    30% | 11% | ? | 6.6% | 13% | -0.9 | 8.0
40: O=C(/C=C/[C@H]1O[C@@H](n2ccc(=O)[nH]c2=O)[C@H](O)[C@@H]1O)NCc1ccccc1
    nt | nt | -2.1% | 1.7% | nt | nt | 3.7
41: COc1ccc(OC)c(CN2CCN(C(=O)c3ccc(S(=O)(=O)N4CCCCCC4)cc3)CC2)c1
    -17% | nt | -0.9% | -0.3% | nt | nt | 3.0
42: COc1ccc(/C(O)=C2/C(=O)C(=O)N(CC3CCCO3)C2c2ccc(O)c(OC)c2)cc1 (centres undefined)
    ? | 6% | nt | -3.4% | 2% | -0.1 | 4.4
43: CCCCOc1ccccc1C1NC(=O)CCC1[N+](=O)[O-] (centres undefined)
    -5%[15.4 µM] | 20% | -0.3% | 0.6% | 8% | -12 | -0.6
44: Cc1cc(C)n(CC(=O)N/N=C/c2ccc([N+](=O)[O-])s2)n1
    -40%[inhibitor] | 2% | nt | 10% | 4% | 0.3 | 5.2
45: CC(C)(C)NC(=O)Nc1ccccc1C(N)=O
    -50%[inhibitor] | 3% | -2.6% | nt | -3% | 5.8 | -0.8
46: Cc1nccn1CC1CCc2c(c3ccccc3n2C)C1=O (centres undefined)
    nt | -5%&0% | -5.1%&-5.7% | 1.0%&-0.2% | 9% | -1.8 | -4.1&-4.4
47: CCOc1ccc(-n2c(COc3ccc(C)cc3)nnc2SCC(N)=O)cc1
    -59%[inhibitor] | -1% | -3.3% | -2.7% | -4% | 4.0 | 0.6
48: COc1ccc(-n2c(NNC(C)=O)nc3sc4c(c3c2=O)CCCC4)cc1
    -27% | -17% | -3.6% | -1.7% | 9% | -4.9 | -5.0
49: Cc1cc(C)c[n+](CC(=O)c2ccccc2)c1
    -31%[inhibitor] | 4% | nt | 0.8% | 9% | -0.7 | 8.2
50: COc1cccc(NC(=O)Cn2c3ccc(OC)cc3c3nc4n(c(=O)c32)CCS4)c1
    ? | 0% | 4.6% | 8.8% | -13% | nt | -2.6
51: N#Cc1cc(Sc2ccccn2)c([N+](=O)[O-])cc1C#N
    ? | 11% | nt | 1.6% | 56µM* | ? | 0.6
52: CC(C)CNc1ncnc2c1ncn2[C@H]1CN(Cc2ccc(-c3ccccc3)cc2)C[C@@H](CO)O1
    nt | nt | -0.2% | ? | nt | nt | 11
53: CC(C)N=c1cc2n(-c3ccc(Cl)cc3)c3ccccc3nc-2cc1Nc1ccc(Cl)cc1
    nt | -11% | 2.0% | 1.3% | ? | -13[24.8 µM] | -7.2
54: COc1ccc(CC(=O)OCC(=O)N2N=C(c3ccccc3)CC2c2ccc(OC)cc2)cc1 (centres undefined)
    -13% | 0% | ? | 0.4% | -18% | 9.0 | -4.0
55: CC(C)(C)OC(=O)NCc1ccc(NC(=O)c2nc[nH]c2C(=O)NCCN(CCNC(=O)c2[nH]cnc2C(=O)Nc2ccc(CNC(=O)OC(C)(C)C)cc2)CCNC(=O)c2[nH]cnc2C(=O)Nc2ccc(CNC(=O)OC(C)(C)C)cc2)cc1
    -22% | 8% | ? | -0.2% | nt | nt | -5.3
56: CCN(CC)S(=O)(=O)c1ccc(C(=O)NC(C)(C)C)cc1
    26% | -3% | nt | 1.0% | 23% | -0.1 | -1.7
57: Cc1ccc(C)c(NC(=O)c2sc(Cl)nc2-c2ccccc2)c1
    -22% | -13% | 1.0% | 1.5% | -4% | -0.5 | -2.3
